Screening results: PubChem BioAssay, National Center for Advancing Translational Sciences (NCATS)
MARV entry inh = inhibitors of Marburg virus binding or cell entry | Marburg virus pseudotyped entry inhibition, cell reporter; control for the full effect not named in the record; about a third of the inactives were read at about 46 µM | actives 1.8% (n = 300,000) | Potency, µM (highest dose often 37.8 µM), for the others: at the top dose activity change, negative = inhibition, actives largely listed as inhibitors | AID 540276; active = well fitted inhibition curve with a large enough effect; inconclusive = small, poorly fitted or top-dose-only effect, or effect the other way; inactive = flat fitted curve, though single readings scatter; tested in HEK293 cells; about a fifth of its hits are not listed in these tables; also: % is scaled to controls: 0 for no effect and ±100 for the full control effect; luciferase read-out
Cruzain Triton = blocks cruzain activity in presence of Triton detergent; P25779; purified cruzain, Z-FR-AMC fluorescence, 0.01% Triton; Potency, µM, inactives show max response, negative = inhibition, most hits filed as inhibitors; actives 0.43% (n = 200,000); active = well fitted curve in the direction sought with a large enough effect; inconclusive = small, poorly fitted or top-dose-only effect, or another doubt; inactive = no such curve, though single readings can be large; an effect the other way counts as inactive or inconclusive;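 also: plate controls were neutral wells for no effect and buffer without enzyme for full effect; nearly all actives have a fitted effect of over 40% in size; top concentration of the series not given in the record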
Target sequence (P25779 123-467 limits assumed): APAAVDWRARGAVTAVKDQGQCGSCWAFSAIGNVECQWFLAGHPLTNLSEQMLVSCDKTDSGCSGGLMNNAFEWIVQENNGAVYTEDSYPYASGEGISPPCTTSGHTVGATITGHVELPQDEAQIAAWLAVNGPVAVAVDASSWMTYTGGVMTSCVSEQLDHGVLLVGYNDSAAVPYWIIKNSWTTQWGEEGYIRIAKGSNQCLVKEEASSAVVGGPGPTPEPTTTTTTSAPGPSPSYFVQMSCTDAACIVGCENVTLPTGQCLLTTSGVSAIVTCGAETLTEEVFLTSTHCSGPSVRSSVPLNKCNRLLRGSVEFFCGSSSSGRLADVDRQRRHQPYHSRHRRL
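Z-FR-AMC hydrolysis (2 uM substrate) by cruzain (1.5 nM) monitored kinetically at ex 360/em 450 nm after 15 min room-temperature compound exposure; 0.01% Triton X-100, pH 5.5, 5 mM DTT.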
SARS PLpro yeast = SARS-CoV PLP inhibition in yeast. S. cerevisiae expressing SARS-CoV PLpro, growth rescue; control for the full effect not named in the record. actives 0.19% (n = 330,000). Potency, µM (top dose mostly 32.9 µM), for inactives: at the highest dose activity, positive = growth rescue; also: 0% is about no effect; nearly all actives have a fitted effect of over 55% in size; growth read by luminescence after 48 h
Cruzain inh noDet = inhibitors of Trypanosoma cruzi cruzain without detergent | purified cruzain, Z-FR-AMC fluorescence, no detergent | P25779 | AID 1476 | actives 2.3% (n = 200,000) | Potency, µM, for inactives: max response, negative = inhibition, usual class: inhibitors; active = well fitted curve in the direction sought with a large enough effect; inconclusive = small, poorly fitted or top-dose-only effect, or another doubt; inactive = no such curve, though single readings can be large; an effect the other way counts as inactive or inconclusive;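 also: plate controls were enzyme without inhibitor for no effect and buffer without enzyme for full effect; nearly all actives have a fitted effect of over 40% in size; top concentration of the series not given in the record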
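Purified cruzain at 1.5 nM, pre-incubated 15 min with compound at room temperature in 100 mM sodium acetate pH 5.5, 5 mM DTT, 0.00005% Triton X-100. Reaction started with 2 uM Z-FR-AMC; AMC fluorescence increase over 60 s gives rate.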
NS1 inh = blocks influenza NS1 protein function; S. cerevisiae slowed by influenza A NS1, growth recovery by OD600; Potency, µM (highest dose often 46.1 µM), for the others: at the top dose activity, positive = more growth; actives 0.4% (n = 270,000); AID 2326; also: actives are rising curves; nearly all actives have a fitted effect of over 50% in size
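A cell-based growth assay was used: compounds that relieve NS1-induced slow growth of budding yeast raise OD600. Assay medium was yeast nitrogen base with ammonium sulphate and -URA supplement, pH 6.0, with 2% galactose.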
StopGo reporter = FMDV 2A StopGo reporter, luciferase signal | human cells with a luciferase reporter of 2A StopGo recoding; control for the full effect not named in the record | Potency, µM (top dose mostly 57.9 µM), without a hit: top-dose signal change, negative = less light | actives 1.2% (n = 410,000); active = well fitted falling curve with a large enough effect; inconclusive = small, poorly fitted or top-dose-only effect; inactive = no such curve, though single readings can be large or run the other way; tested in HEK293T cells; also: % is scaled to controls: 0 for no effect and ±100 for the full control effect; nearly all actives have a fitted effect of over 45% in size; luciferase light after 4 h
RE007 growth inh = less growth of the S. pombe RE007 Vpr strain. S. pombe RE007 Vpr strain, BacTiter-Glo ATP luminescence, 24 h; control for the full effect not named in the record. Potency, µM (top dose mostly 92.2 µM), inactives show at the top dose activity change, negative = less growth. actives 0.21% (n = 360,000). AID 651644; active = well fitted falling curve with a large enough effect; inconclusive = small, poorly fitted or top-dose-only effect; inactive = no such curve, though single readings can be large or run the other way;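 also: % is scaled to controls: 0 for no effect and ±100 for the full control effect; nearly all actives have a fitted effect of over 50% in size; the assay follows cell death caused by Vpr and the record does not say whether a fall means rescue or toxicity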
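Fission yeast strain RE007, carrying one chromosomally integrated HIV-1 vpr copy, was seeded at OD 0.01 in PMG+AL medium with 23 nL pinned compound. After 24 h at 30 °C and 99% humidity, viability was read by BacTiter-Glo luminescence.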
LASV entry inh = Lassa virus entry inhibition; Lassa virus pseudotype entry inhibition, cell reporter; control for the full effect not named in the record; Potency, µM (titrated, usually from 37.9 µM), for the others: at the highest dose activity change, negative = inhibition, most hits filed as inhibitors; actives 1.2% (n = 300,000); AID 540256; active means well fitted inhibition curve with a large enough effect; inconclusive means small, poorly fitted or top-dose-only effect, or effect the other way; inactive means flat fitted curve, though single readings scatter; tested in HEK293 cells; also: % is scaled to controls: 0 for no effect and ±100 for the full control effect; nearly all actives have a fitted effect of over 50% in size; luciferase read-out
* marks the source's active call; other numbers are inactive results; ? = inconclusive; nt = not tested or not shown; [ ] = another dose, or the depositor's remark. Unless noted, calls follow the shape of the dose curve; as a rule, active means well fitted rising curve with a large enough effect; inconclusive means small, poorly fitted or top-dose-only effect; inactive means no such curve, though single readings can be large or run the other way. Potency is read from the fitted curve at half-maximal effect.

Each structure is followed by: MARV entry inh, Cruzain Triton, SARS PLpro yeast, Cruzain inh noDet, NS1 inh, StopGo reporter, RE007 growth inh, LASV entry inh
> CC(C)(C)[C@H]1C=C(C(=O)NCc2ccccc2)O[C@@H](OCc2ccc(CO)cc2)C1
    nt, nt, 0%, nt, -10%, 4%, 7%, nt
> O=C(CCC1CCCN(C(=O)CC2=CCCCC2)C1)N1CCN(c2ccccn2)CC1 (stereo unspecified)
    -11%[46.1 µM], nt, -1%, nt, -8%, ?, -19%, -16%
> CC(C)(C)N(Cc1ccccc1)C(=O)COC(=O)c1ccccc1SCC(=O)N1CCCC1
    -18%[46.1 µM], nt, 2%, nt, nt, -24%, -3%, ?
> CC1CN=C(Nc2ccc(F)c(Cl)c2)S1 (stereo unspecified)
    -18%[46.1 µM], nt, 1%, nt, -1%, -8%, -1%, 5%[46.1 µM]
> CCc1ccc(NC(=O)Nc2cccs2)cc1
    ?, -9.3%, -4%, -2%, -68%, 20%, -27%, ?
> COc1ccc(CCNC(=O)COC(=O)c2ccc(C)s2)cc1
    21%, nt, -5%, nt, nt, 2%, 7%, -1%
> Cc1ccc(NC(=O)C(=O)NCC(c2ccc3c(c2)OCO3)N2CCN(C)CC2)cc1C (stereo unspecified)
    nt, 0.6%, nt, -16%, nt, 0%, nt, ?
> Cc1ccc(NNC(=O)CCc2ccccc2)c(C)c1
    -8%[46.1 µM], nt, 1%, nt, -3%, -1%, 4%, 2%
> Cc1cccc(N2CCCn3c2nc2c3c(=O)n(CC(=O)OCc3ccccc3)c(=O)n2C)c1
    8%, -7.1%, -14%, 7%, -38%, nt, nt, nt
> COc1ccc(NC(=O)c2ccco2)cc1NC(=O)COc1ccccc1Cl
    27%[46.1 µM], -2.3%, nt, 6%, nt, ?, nt, ?
> O=C(CN(Cc1ccccc1Cl)C(=O)c1csnn1)NCc1ccc2c(c1)OCO2
    16%[46.1 µM], nt, -2%, nt, -10%, -7%, -14%, -23%
> Cc1c(C(=O)N/N=C/c2ccc(N3CCOCC3)cc2)nc2ccccn12
    1%[46.1 µM], nt, 2%, nt, -4%, -24%, 6%, 9%[46.1 µM]
> CCOc1cccc(-c2csc(C3COc4ccccc4O3)n2)c1 (stereo unspecified)
    1%, -3.5%, 8%, -18%, -8%, 31%[activator], -14%, ?
> Cc1ccc(S(=O)(=O)OCC(=O)Nc2ccc(C(=O)O)c(O)c2)cc1
    4%, nt, nt, nt, nt, -18%, -2%, 18%
> C=CCSc1nnc(-c2ccccc2NC(C)=O)c(=O)[nH]1
    -11%, -2.2%, 13%, -6%, 3%, -20%, 10%, 4%
> COc1ccc(S(=O)(=O)Cc2ccc(C(=O)NC3CCC(C)CC3)o2)cc1 (stereo unspecified)
    ?, nt, -22%, nt, 0%, -14%, 4%, ?
> CCCCN(C(=O)c1ccc(N2C(=O)c3ccccc3C2=O)cc1)c1c(N)n(CC(C)C)c(=O)[nH]c1=O
    -1%, nt, 4%, nt, nt, -6%, 3%, 19%
> Cc1ccc(C(=O)Nc2nn(C)c3cccc(F)c23)cc1
    ?, nt, -1%, nt, -5%, 38%[activator], 4%, -1%
> COc1ccccc1CCNC(=O)C(=O)NCC1OCCN1S(=O)(=O)c1ccc2c(c1)OCCO2 (stereo unspecified)
    -24%[46.1 µM], nt, nt, nt, 0%, ?, 0%, ?
> Cc1ccc(S(=O)(=O)N2CCN(C(=O)CSc3nnnn3C)C2)cc1
    6%, 2.3%, 1%, -4%, 0%, -1%, -8%, 6%
> CC(=O)Nc1ccc(S(=O)(=O)Nc2ccccn2)cc1
    17%[46.1 µM], nt, -1%, nt, 3%, -11%, 17%, -2%
> O=C(CSC(=S)N1CCCC1)Nc1cc2c(cc1Br)OCCO2
    nt, nt, 3%, nt, 7%, 35%[activator], -8%, nt
> Cc1cc(C)cc(Nc2nc3c(S(=O)(=O)c4ccccc4)nnn3c3ccccc23)c1
    ?, -5.9%, -11%, ?, 10%, -19%, -9%, -14%
> CCOC(=O)N(C)c1ccc(C(O)(C(=O)OCC)C(F)(F)F)cc1 (stereo unspecified)
    ?, -2.5%, 1%, 13%, -1%, -26%, 4%, ?
> COC(=O)c1c(SCC(=O)Nc2cc(OC)cc(OC)c2)[nH]c2ccc(C)cc2c1=O
    nt, -1.8%, nt, -27%, nt, -21%, nt, 2%[46.1 µM]
> COc1ccc(/C=C(\C#N)C(=O)NCc2cccs2)cc1OC
    1%, -1.9%, -29%, -5%, -2%, -2%, 1%, 1%
> Cc1ccc(S(=O)(=O)CCC(=O)OCC(=O)N(C)c2ccccc2)cc1
    -4%[46.1 µM], nt, nt, nt, nt, -3%, 1%, -5%
> O=C(NCCCN1CCOCC1)c1ccc(Sc2ccccc2Cl)c([N+](=O)[O-])c1
    15%, -0.9%, 1%, 1%, 3%, -14%, 10%, -14%
> CCN(CC(=O)Nc1c(F)cccc1F)C(=O)CCCOc1ccc(OC)cc1
    13%, nt, -2%, nt, nt, 0%, -1%, -6%
> Cc1ccc(NS(=O)(=O)c2ccc(CCC(=O)NCc3ccccn3)cc2)cc1
    ?, nt, 1%, nt, 3%, 12%, 2%, 2%[46.1 µM]

Of the compounds above, three have an NH in an aromatic ring.
Each structure is followed by: MARV entry inh, Cruzain Triton, SARS PLpro yeast, Cruzain inh noDet, NS1 inh, StopGo reporter, RE007 growth inh, LASV entry inh
> C=CCSc1nnc(-c2ccccc2NC(C)=O)c(=O)[nH]1
    -11%, -2.2%, 13%, -6%, 3%, -20%, 10%, 4%
> CCCCN(C(=O)c1ccc(N2C(=O)c3ccccc3C2=O)cc1)c1c(N)n(CC(C)C)c(=O)[nH]c1=O
    -1%, nt, 4%, nt, nt, -6%, 3%, 19%
> COC(=O)c1c(SCC(=O)Nc2cc(OC)cc(OC)c2)[nH]c2ccc(C)cc2c1=O
    nt, -1.8%, nt, -27%, nt, -21%, nt, 2%[46.1 µM]

Next part
Each structure is followed by: MARV entry inh, Cruzain Triton, SARS PLpro yeast, Cruzain inh noDet, NS1 inh, StopGo reporter, RE007 growth inh, LASV entry inh
> COc1ccc(-c2csc3nc(-c4ccccc4)oc(=O)c23)cc1OC
    ?, -0.4%, -2%, -12%, -2%, ?, -2%, ?
> Cn1nc(-c2ccc(Cl)cc2)c2cc(C(=O)N3CCN(c4ccccc4)CC3)sc21
    7%, -8.7%, 1%, ?, 5%, -30%, 3%, nt
> COc1ccccc1C(c1nnnn1CC1CCCO1)N1CCC(C(N)=O)CC1 (stereo unspecified)
    2%[46.1 µM], 1.5%, 4%, -8%, -4%, 4%, 0%, -1%
> CC(=O)Nc1ccc(S(=O)(=O)NCC(=O)OCC(=O)c2ccc[nH]2)cc1
    -2%, nt, 2%, nt, nt, -1%, 3%, 0%
> O=C(Nc1ccc(-n2cccn2)cc1)C1CCN(Cc2ccsc2)CC1
    -21%, nt, -1%, nt, -2%, -10%, 3%, ?
> COc1ccccc1NC(=O)CN1CCN(c2ccccn2)CC1
    -7%, -0.3%, 16%, 3%, -8%, -16%, 12%, -5%
> CCCSc1nnc(-c2c[nH]c3ccccc23)n1CC
    -2%, 5.0%, -6%, 0%, -91%, -3%, 21%, nt
> O=C(NCc1ccccc1F)c1cccc(NC(=O)N2CCSc3ncccc32)c1
    nt, -14%, nt, -9%, nt, -26%, nt, 1%[46.1 µM]
> FC(F)(F)c1nc(NCc2ccccc2)c2nnn(Cc3ccccc3)c2n1
    nt, nt, ?, nt, ?, 6%, 3%, nt
> Cc1cccc(/C=N\NC(=O)c2csnn2)c1
    -10%, -7.2%, 12%, 0%, -18%, -34%, -2%, 5%
> Cc1cccc(C)c1N1CCN(S(=O)(=O)N(C)C)CC1
    -15%[46.1 µM], nt, -1%, nt, -11%, -26%, -2%, -23%[46.1 µM]
> COc1ccc(NC(=S)NCC(O)c2ccccc2)c(OC)c1 (stereo unspecified)
    3%, -0.7%, 6%, -14%, 12%, 3%, -14%, -14%
> CCCOc1ccc(N2CC(C(=O)Nc3cccc(Cl)c3Cl)CC2=O)cc1 (stereo unspecified)
    nt, 1.8%, nt, 5%, nt, -3%, nt, -14%[46.1 µM]
> CC(=O)Nc1ccc(S(=O)(=O)n2nc(C)cc2C)cc1
    ?, 4.7%, -1%, 13%, -4%, 2%, -16%, 13%
> COc1cccc(C(=O)N2CCc3cc(OC)c(OC)cc3C2COc2ccc3c(C)cc(=O)oc3c2)c1 (stereo unspecified)
    ?, 6.1%, nt, -6%, nt, 0%, nt, -27%[46.1 µM]
> O=C(NC1(C(F)(F)F)NC(=O)N(CCc2ccccc2)C1=O)c1ccc(Cl)cc1 (stereo unspecified)
    ?, -9.9%, nt, -9%, nt, 8%, nt, -7%[46.1 µM]
> COc1ccccc1NC(=O)Cc1noc(CN(C)Cc2cccs2)n1
    3%[46.1 µM], -3.4%, 2%, 11%, -12%, -19%, -9%, -14%
> Cc1ccc(/C=C2\SC(=S)N(CCC(=O)N3CCOCC3)C2=O)cc1
    nt, nt, 3%, nt, -2%, 20%, 3%, nt
> O=C(COC(=O)c1ccc[n+]([O-])c1)Nc1cc([N+](=O)[O-])ccc1Cl
    -12%[46.1 µM], nt, 1%, nt, nt, -7%, 0%, 13%[46.1 µM]
> COc1ccc(CNC(=O)CN2C(=O)NC(c3ccccc3)(c3ccccc3)C2=O)cc1
    -27%, nt, 0%, nt, nt, -25%, -30%, -7%
> Cn1c(=O)cc(OCCCC(=O)NCCN2CCN(c3ccccc3F)CC2)c2ccccc21
    nt, 0.2%, -4%, 7%, -3%, -5%, -6%, nt
> CCOC(=O)N1CCC(NC(=O)CCC(=O)N2CCOc3ccc(C)cc32)CC1
    1%, -3.0%, 18%, -2%, -4%, -18%, 10%, -1%
